rRNA inh HTS = reduced GFP signal of wild-type E. coli, primary screen, bacterial rRNA inhibitor project, GFP/RFP fluorescence, OD600, single point | GFP signal change (wild-type ribosome), % (concentration not given with the values) | hit rate 1.6% among 350,000 | E. coli WT GFP vs humanized-ribosome RFP mutants, 24 h; hits give low values; DMSO median 0, no signal -100;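 active = significant combined selectivity score with lowered wild-type GFP, culture density cut under 30%, mutant RFP and density less affected; inactive = any of these conditions unmet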; note: one replicate is shown; some compounds called inactive have numbers as strong as hits
Calb FLC = C. albicans growth inhibition with fluconazole, primary screen, CaCi-2 strain, Alamar Blue fluorescence. hit rate 0.57% among 300,000. growth inhibition, % (no concentration beside the values). C. albicans CaCi-2 (fluconazole-resistant clinical isolate) + fluconazole, 48 h;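 active = most replicates above 75%; inconclusive = exactly half above 75%; inactive = most below 75%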;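 note: all wells also contain fluconazole at 8 µg/ml as a sub-toxic cotreatment; 0% = median of DMSO wells and 100% = median of geldanamycin control wells; wells of about 8 µL received 7.5 nL stock; the first replicate is given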
Beta apoptosis = inhibitors of cytokine-induced beta cell apoptosis, primary screen, luminescence. INS-1E cytokine-induced death, ATP luminescence, 48 h; percent of positive-control rescue, neutral wells zero. protection from apoptosis, % (test concentration not listed). hit rate 0.8% among 300,000. AID 435005, 2010;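 active = all replicates at 75% or more, or half of them and the mean; inconclusive = half reach 75% but not the mean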;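 note: 0% = cytokine-treated negative control wells and 100% = positive control rescue; higher means more ATP so stronger rescue from cytokine killing; wells of about 40 µL received 100 nL stock; the first replicate is given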
MLL AF4-AF9 inh = inhibitors of AF4 peptide binding to AF9, primary screen, biochemical, AlphaScreen, biotin-AF4 peptide, FLAG-AF9, single point; Protein AF-9 (Homo sapiens), P42568; inhibition, % at 10 µM; hit rate 0.47% among 350,000; AID 651704, 2012;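 active = every replicate reaching a set inhibition limit, whatever the replicate mean, cut at about 25% in these data; inconclusive = mean inhibition reaches that limit but some replicates miss it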;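 note: 0% = plate neutral control median and 100% = total signal loss; the record names both 10 and 1 µM as test concentration; the first replicate is given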
Target sequence (P42568 whole entry, looked up): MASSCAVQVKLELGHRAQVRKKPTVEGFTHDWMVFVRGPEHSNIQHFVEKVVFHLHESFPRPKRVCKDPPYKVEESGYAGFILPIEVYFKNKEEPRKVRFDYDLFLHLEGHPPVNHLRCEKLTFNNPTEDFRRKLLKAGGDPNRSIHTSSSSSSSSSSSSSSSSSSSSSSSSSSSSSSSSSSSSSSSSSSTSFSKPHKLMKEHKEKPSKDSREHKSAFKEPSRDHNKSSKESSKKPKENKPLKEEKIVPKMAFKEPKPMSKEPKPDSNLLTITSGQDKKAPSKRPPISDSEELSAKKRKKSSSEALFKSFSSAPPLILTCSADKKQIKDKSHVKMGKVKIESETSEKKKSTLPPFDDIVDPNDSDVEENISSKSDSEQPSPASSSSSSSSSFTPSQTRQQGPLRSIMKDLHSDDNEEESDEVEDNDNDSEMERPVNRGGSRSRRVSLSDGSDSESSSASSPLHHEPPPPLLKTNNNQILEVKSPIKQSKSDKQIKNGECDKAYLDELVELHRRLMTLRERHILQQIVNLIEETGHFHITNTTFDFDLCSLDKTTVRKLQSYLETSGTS
RanGTP-Imp inh = inhibitors of RanGTP-importin-beta interaction, primary screen, biochemical, FRET, CFP-Ran, YFP-importin-beta, homogeneous. Ran GTPase (GTP-bound) - importin-beta complex. cell-free CFP-Ran/YFP-importin-beta FRET ratio. inhibition, % (test concentration not listed). hit rate 1.1% among 300,000. AID 2216, 2009;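 active = most replicates above 15%; inconclusive = exactly half above 15%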;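 note: 0% = DMSO wells and 100% = Ran loaded with GDP instead of GTP; wells of about 40 µL received 100 nL stock; the first replicate is given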
Bfl-1 A1 inh = caspase 3/7 activation in MEF A1-2A-BIM cells, primary screen, A1 inhibitor project, cell-based, luminescence, HTS; AID 2462, 2010; caspase activation, % (concentration not given with the values); hit rate 0.066% among 330,000; Caspase-Glo 3/7 luminescence, 3 h; percent of clofoctol response, vehicle zero;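 active = over half of replicate activation scores above 10%, or exactly half above 10 with the replicate mean above 10; inconclusive = replicate mean below 10 yet half the replicates above 10; inactive = over half of replicates below 10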;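 note: wells of about 30 µL received 50 nL stock; many hits fall short of the cut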
Vif A3G = inhibitors of Vif binding to APOBEC3G peptide, primary screen, biochemical, TR-FRET, GST-Vif 1-94, biotin-A3G peptide, dose response retest (AID 1117319). Virion infectivity factor (Human immunodeficiency virus type 1 group M subtype B (isolate …. TR-FRET GST-Vif / biotin-A3G peptide binding; higher % means a stronger effect; test concentration not given here; strong numbers were not always called active. inhibition, %; hits with a dose series show IC50 in µM. hit rate 0.57% among 260,000;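 active = above the screen mean plus three standard deviations and confirmed in dose response; inconclusive = results disagree or hit not tested in dose response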;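 note: Vif residues 1-94 fused to GST binding biotinylated APOBEC3G peptide 110-148; 0% = full assay without inhibitor and 100% = GST in place of GST-Vif; retest series ran down from 100 µM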
T cruzi repl = inhibitors of intracellular T. cruzi growth, primary screen, luminescence, NIH3T3 host cells. hit rate 1.4% among 300,000. inhibition, % (concentration not given with the values). AID 1885, 2009. T. cruzi beta-gal in NIH3T3, 90 h;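 active = mean inhibition across valid replicates above about 55%, limit read from the data; inconclusive = mean below that limit but half or more replicates reach it; inactive = mean below it, under half of replicates reach it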;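 note: signal also drops with host cell toxicity which is not excluded here; 0% = plate median of DMSO wells and 100% = zero luminescence signal; higher percent means less beta-gal luminescence so fewer parasites; stock transfer was 50 nL into about 50 µL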
rRNA inh HTS OD600 = second read-out of rRNA inh HTS, no call of its own (marks repeat the call); OD600 change, %; measured here: OD600 growth;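 optical density of the mix in the first replicate; 0 = DMSO median and -100 = no signal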
rRNA inh HTS RFP = recorded beside rRNA inh HTS, whose call it bears; RFP signal change, %; measured here: RFP humanized mutant strains;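 first replicate; 0 = DMSO median and -100 = no signal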
An asterisk follows results filed as active; u = inconclusive; x = not tested or not shown. This is a subset, so the mix of outcomes need not match the whole.

SMILES | rRNA inh HTS | rRNA inh HTS OD600 | rRNA inh HTS RFP | Calb FLC | Beta apoptosis | MLL AF4-AF9 inh | RanGTP-Imp inh | Bfl-1 A1 inh | Vif A3G | T cruzi repl
COc1ccccc1CNCC(=O)NCc1ccc(C)cc1 | 12.3 | 12.6 | -7.8 | -0.5 | x | -1.7 | -0.3 | -0.1 | -16.0% | -13.3
CC(=O)Nc1ccc(S(=O)(=O)NCC2CCC(C(=O)NCCc3ccccc3)CC2)cc1 (stereo unspecified) | 3.8 | 3.6 | -1.0 | 7.8 | -5.2 | -0.4 | -3.5 | 0.6 | x | 2.9
O=C(NC1CCN(C(=O)NCc2ccccc2)CC1)c1ccco1 | x | x | x | -1.4 | 0.1 | x | 0.6 | 0.1 | 9.7% | -15.9
O=C(O)c1cccc(NC(=S)NC(=O)c2cccc(OCc3ccccc3)c2)c1 | -16.4 | -7.6 | 0.5 | 0.2 | -7.0 | -5.7 | -3.7 | -6.0 | -3.3% | 5.6
COC(=O)c1sc(-c2ccc(Cl)cc2)cc1N | -1.4 | 8.4 | 1.6 | -23.9 | 3.3 | -1.0 | -0.2 | -3.4 | -23.0% | -1.3
COc1cccc(-c2nnn(CC(=O)Nc3ccc(C)cc3C)n2)c1OC | x | x | x | -33.8 | 2.2 | x | 2.1 | -1.4 | u | -22.7
CC(C)(C)c1ccc(S(=O)(=O)N2CC(=O)Nc3ccccc32)cc1 | x | x | x | 8.2 | -6.6 | x | 1.2 | 1.1 | 29.0% | -3.3
O=C(NC(C(=O)N/N=C/c1ccccc1)c1n[nH]c(=O)c2ccccc12)c1ccccc1 (stereo unspecified) | x | x | x | 10.0 | 4.5 | x | -4.8 | -0.5 | 3.2% | -3.4
CCCn1cnc2scc(-c3ccc(C)cc3)c2c1=O | 6.3 | -0.5 | -2.0 | -4.0 | -22.8 | -2.3 | 0.8 | -1.0 | -4.0% | -10.5
O=C(CCSc1ccccc1)N1CCN(c2ccccc2)CC1 | -19.6 | -18.7 | -7.8 | -8.5 | 1.1 | 0.2 | -1.6 | -0.5 | -3.6% | 11.7
O=C(NC(=S)N1CCN(c2ccccc2)CC1)c1ccc(S(=O)(=O)N2CCOCC2)cc1 | 13.7 | 7.8 | -3.3 | -1.5 | 4.9 | -1.7 | 2.8 | 0.2 | -5.2% | -15.0
C=C(C)c1cccc(C(C)(C)NC(=O)N2CCCCC2CC)c1 (stereo unspecified) | x | x | x | -2.4 | -4.2 | x | 3.4 | 0.9 | 0.8% | 11.3
Cc1cccc(N2CCN(Cc3c(C)n(C)n(-c4ccccc4)c3=O)CC2)c1C | x | x | x | -6.9 | 7.7 | x | 4.6 | 0.1 | -0.3% | -17.2
COC(=O)c1c(C)[nH]c(C(=O)C(C)OC(=O)C2CC(=O)N(c3ccc(C)cc3)C2)c1C (stereo unspecified) | -22.7* | -17.1* | -4.5* | x | 0.2 | 2.2 | x | 2.0 | x | x
O=C(O)CC(NC(=O)c1cccc(F)c1)c1ccc(OC2CCCC2)cc1 (stereo unspecified) | 0.6 | 14.8 | 1.9 | -13.7 | -3.4 | -3.1 | 3.1 | 0.4 | -2.9% | -8.8
Cc1ccc(S(=O)(=O)CNC(=S)c2cccc(Cl)c2)cc1 | x | x | x | -1.9 | -9.8 | x | -0.3 | 0.6 | -2.4% | -16.9
Cc1nn(Cc2ccc(Cl)c(Cl)c2)c(C)c1NC(=O)c1cc(-c2ccc3c(c2)OCO3)on1 | x | x | x | -12.4 | 18.7 | x | 2.5 | 2.4 | 0.2% | u
CC(=O)c1ccc(N2CCN(C(=O)/C=C/c3ccc(S(=O)(=O)NCc4ccco4)cc3)CC2)cc1 | -16.9 | -13.1 | 4.6 | -2.5 | 11.4 | -2.0 | -1.8 | 0.1 | x | 11.0
CC(=O)Nn1cc2c(c1-c1ccccc1)c(=O)n(C)c(=O)n2C | x | x | x | 4.0 | -1.8 | x | -2.1 | 0.6 | 0.5% | -8.5
Cc1ccc(/C=C/C(=O)OCC(=O)NC(C)C)o1 | 14.5 | 4.9 | 3.0 | -9.6 | -6.9 | -2.1 | -1.2 | 0.0 | -11.5% | -13.2
O=C(Oc1ccc(/C=N/Nc2ccccc2)cc1)c1ccccc1 | x | x | x | -24.7 | 2.3 | x | 1.7 | -3.6 | -2.0% | -8.2
Cc1ccc(NC(=O)CC2Oc3ccc(C)cc3NC2=O)c(C)c1 (stereo unspecified) | 18.9 | 24.1 | -1.1 | 5.7 | -2.9 | -3.5 | 4.5 | 1.7 | -4.5% | 0.2
CCCn1c(=S)[nH]c2sc3c(c2c1=O)CCCC3 | -1.1 | -6.1 | -0.9 | 71.2 | 3.4 | -7.7 | -1.5 | -1.3 | x | -21.5
CC1Sc2ccc(C(=O)O)cc2NC1=O (stereo unspecified) | x | x | x | 22.5 | -0.5 | x | 3.1 | -0.2 | 1.1% | -5.2
O=C(CSc1nc2ccccc2c(=O)n1-c1ccc(F)cc1)Nc1ccc2c(c1)CCC2 | 7.5 | 3.1 | -2.6 | -14.6 | 7.8 | 0.1 | u | 0.2 | 1.2% | 32.4
Cc1cc(N)c2ccccc2n1 | 3.7 | 3.9 | -3.5 | u | 1.7 | 1.2 | 0.5 | -1.5 | 3.2% | -6.4
O=C(Nc1cccc(Cl)c1)C1C2C=CC3(O2)C1C(=O)N(CCN1CCCCC1)C3C(=O)NC1CCCCC1 (stereo unspecified) | 4.2 | 16.7 | 3.3 | -7.5 | 2.2 | 1.9 | -0.1 | -0.1 | x | 15.0
COCCN1C(=O)N(c2cccc(OC)c2)C(=O)C1CC(=O)Nc1cccc(F)c1 (stereo unspecified) | 8.1 | -2.1 | 0.7 | -2.6 | x | -14.6 | -0.9 | 0.2 | x | -15.2
Cc1ccc(C(=O)N/N=C2\CC3CC=CC23)c(C)c1 (stereo unspecified) | 5.2 | 13.4 | -0.9 | 1.2 | -6.6 | -1.8 | 5.4 | 0.0 | -9.1% | -5.3
CCS(=O)(=O)N1CCN=C1SC(C)c1ccccc1 (stereo unspecified) | 8.1 | 4.8 | 0.3 | -5.6 | 0.9 | 0.2 | -0.4 | 1.3 | 1.8% | -2.8
Cc1ccc2nc(C3CCN(C(=O)c4ccco4)CC3)[nH]c2c1 | x | x | x | 45.1 | -7.9 | x | -3.3 | -0.9 | -1.3% | -19.4
CCCOC(=O)c1cccc(NC(=O)COc2ccc([N+](=O)[O-])cc2)c1 | -21.4* | -16.2* | -0.9* | 3.4 | 2.5 | 2.1 | 0.1 | 1.7 | -1.9% | 0.7
CC(C)(C)NC(=O)c1cccc(NC(=O)Cc2ccc(Br)cc2)c1 | x | x | x | -3.2 | 0.5 | x | -0.4 | -0.6 | -1.2% | -0.2
COc1ccc(OCc2nnc(SCC(=O)c3ccccc3)o2)cc1 | -13.5 | -21.2 | -4.3 | -13.3 | -7.3 | -0.3 | x | -0.5 | 1.5% | -2.4
O=C(COC(=O)c1ccc(O)cc1)NCCc1c[nH]c2ccccc12 | 1.0 | -6.7 | 3.0 | x | -1.6 | 2.8 | x | 0.8 | -5.1% | x
Clc1ccccc1-c1nnc2sc(-c3ccccn3)nn12 | x | x | x | -6.9 | x | x | 0.6 | x | -4.0% | 8.0
COc1cc2c(cc1OC)-c1cc(OCc3ccccc3Cl)nc(=O)n1CC2 | x | x | x | 19.0 | 1.4 | -2.4 | 0.8 | 0.7 | -19.3% | 17.8
C=CCn1c(COc2ccccc2)nc2ccccc21 | -27.4* | -21.2* | -5.3* | -22.9 | x | -1.2 | 1.6 | -1.4 | 6.0% | 9.3
O=C1CCCc2c1nc(-c1ccc([N+](=O)[O-])cc1)n2O | -17.5* | 10.5* | 3.1* | -0.5 | -19.7 | -5.6 | -1.4 | 0.5 | x | -10.3
CSC(=Nc1ccccc1)C1=C(O)COC1=O | x | x | x | -6.1 | -1.5 | x | 0.7 | -0.6 | u | 3.2
COC(=O)c1ccccc1NC(=O)C1CCN(c2ncnc3c2nc2n3CCCCC2)CC1 | -13.4 | -34.0 | -2.3 | 5.1 | 3.2 | 0.2 | 0.2 | 1.7 | x | 11.9
Cc1nn(C)c(C)c1/C=C(\C#N)C(N)=O | 9.9 | 0.0 | -2.4 | -8.5 | 0.5 | 4.9 | -4.6 | 1.6 | 0.2% | -8.0
COc1ccc(NC(=O)c2ccc3ccccc3n2)cc1S(=O)(=O)N1CCCCC1 | x | x | x | -3.3 | 6.8 | x | -2.0 | 0.4 | 24.1% | 27.9
COc1ccc2[nH]c(=O)c(CN(C(=O)NC3CCCCC3)C3CCCC3)cc2c1 | x | x | x | 0.2 | 1.7 | x | u | 0.8 | -4.6% | 9.5
COc1ccc([N+](=O)[O-])cc1NC(=S)NC(NC(C)=O)C(Cl)(Cl)Cl (stereo unspecified) | 3.5 | 1.5 | -3.2 | -6.6 | x | -10.7 | 2.9 | x | -8.8% | -6.6
CCCNC(=O)C1CN(C(=O)c2nn(Cc3ccccc3)c(=O)c3ccccc23)c2ccccc2O1 (stereo unspecified) | 2.9 | -18.0 | 4.5 | x | 0.7 | 3.8 | x | -0.3 | x | x
Cc1cccc(C)c1NC(=O)C(NC=O)c1ccccc1 (stereo unspecified) | x | x | x | 0.1 | -1.3 | x | -0.6 | -0.4 | 10.2% | 14.0
CC(C)(ONC(=O)Nc1ccccc1Cl)C(=O)O | 5.1 | 1.1 | 0.7 | 3.3 | -6.2 | -3.6 | 4.2 | 2.1 | x | -10.8
O=C(NC1CCCC1)c1n[nH]c2ccccc12 | -0.9 | 5.7 | -4.9 | -7.7 | -3.2 | -2.0 | -2.2 | -0.3 | -3.2% | -28.2
O=S(=O)(CCN1CCSCC1)c1ccc(Cl)cc1 | -0.5 | -1.7 | -4.8 | 4.9 | 2.5 | -4.1 | 5.2 | 0.4 | 2.7% | -7.0
O=C(O)c1cc2c(cc1Cl)N1CCCCCC1=NS2(=O)=O | 8.5 | 9.8 | -0.1 | 23.3 | -4.5 | -18.6 | 3.2 | 0.3 | -3.6% | -5.8
O=C1CC(N2CCCCC2)C(=O)N1c1ccccc1 (stereo unspecified) | x | x | x | -0.8 | -3.3 | x | 0.5 | 0.0 | -1.9% | -7.4
COc1cccc2c1cc1c(=O)n(CC(=O)N3CCC(C)CC3)nc(C)n12 | 6.4 | 7.4 | 2.0 | 8.5 | -1.4 | -0.2 | u | 1.0 | -3.0% | 6.3
Cc1ccc2[nH]c(O)c(N=NC(N)=S)c2c1 | -6.8 | -7.2 | 6.4 | 6.4 | -1.3 | -1.6 | -1.8 | 0.3 | 16.9% | 9.1
Cc1ccc(/C=[N+](\[O-])c2ccc(N(C)C)cc2)c2nsnc12 | 9.4 | 7.6 | 31.1 | 97.5* | x | u | -0.9 | x | u | 28.0
